AF4-AF9 inh = inhibitors of human MLL-AF4/AF9 interaction. inhibition, % at 10 µM. actives 0.47% (n = 350,000). P42568. AlphaScreen, biotin-AF4 peptide binding to FLAG-AF9;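 active = every replicate reaching a set inhibition limit, whatever the replicate mean, cut at about 25% in these data; inconclusive = mean inhibition reaches that limit but some replicates miss it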;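 also: 0% = plate neutral control median and 100% = total signal loss; the record names both 10 and 1 µM as test concentration; the first replicate is given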
Target sequence (P42568 whole entry, looked up): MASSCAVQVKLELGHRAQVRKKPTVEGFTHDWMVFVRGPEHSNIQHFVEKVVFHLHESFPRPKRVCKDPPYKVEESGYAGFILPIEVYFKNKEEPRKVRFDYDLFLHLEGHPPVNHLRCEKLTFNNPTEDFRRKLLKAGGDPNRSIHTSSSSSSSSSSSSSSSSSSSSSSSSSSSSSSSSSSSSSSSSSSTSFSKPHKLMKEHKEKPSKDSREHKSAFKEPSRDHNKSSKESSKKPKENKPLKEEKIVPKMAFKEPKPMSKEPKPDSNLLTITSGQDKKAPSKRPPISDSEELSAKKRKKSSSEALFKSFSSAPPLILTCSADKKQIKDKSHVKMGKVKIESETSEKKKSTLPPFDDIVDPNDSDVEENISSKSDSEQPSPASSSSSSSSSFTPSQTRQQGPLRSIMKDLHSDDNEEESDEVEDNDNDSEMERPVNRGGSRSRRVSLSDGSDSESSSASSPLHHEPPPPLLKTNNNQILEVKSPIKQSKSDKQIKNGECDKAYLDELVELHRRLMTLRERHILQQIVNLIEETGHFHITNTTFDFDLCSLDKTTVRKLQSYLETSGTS
Calb FLC = affects C. albicans growth with fluconazole. C. albicans CaCi-2 (fluconazole-resistant clinical isolate) + fluconazole, Alamar Blue growth, 48 h. actives 0.57% (n = 300,000). growth inhibition, % (test concentration not listed);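 active = most replicates above 75%; inconclusive = exactly half above 75%; inactive = most below 75%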;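 also: all wells also contain fluconazole at 8 µg/ml as a sub-toxic cotreatment; 0% = median of DMSO wells and 100% = median of geldanamycin control wells; wells of about 8 µL received 7.5 nL stock; the first replicate is given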
ALR inh = human ALR oxidase inhibition via reduced H2O2. P55789. purified ALR, DTT oxidation, H2O2 HRP-luminol luminescence. inhibition, % (test concentration not listed). actives 3.8% (n = 290,000);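 active = mean and each replicate at 75% or more; inconclusive = only one of the two met; inactive = neither met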;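 also: stock transfer was 7.5 nL into about 7.5 µL; 0% = neutral wells and 100% = wells with inactivated enzyme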
Target sequence (P55789 whole entry, looked up): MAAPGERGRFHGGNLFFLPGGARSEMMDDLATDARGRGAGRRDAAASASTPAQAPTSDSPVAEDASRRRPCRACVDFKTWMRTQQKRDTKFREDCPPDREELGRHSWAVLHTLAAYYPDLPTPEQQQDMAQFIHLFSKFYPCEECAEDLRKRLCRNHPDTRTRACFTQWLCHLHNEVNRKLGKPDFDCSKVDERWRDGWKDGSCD
Beta apoptosis = blocks beta cell apoptosis. INS-1E cytokine-induced death, ATP luminescence, 48 h; percent of positive-control rescue, neutral wells zero. protection from apoptosis, % (concentration not given with the values). actives 0.8% (n = 300,000). AID 435005;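 active = all replicates at 75% or more, or half of them and the mean; inconclusive = half reach 75% but not the mean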;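 also: 0% = cytokine-treated negative control wells and 100% = positive control rescue; higher means more ATP so stronger rescue from cytokine killing; wells of about 40 µL received 100 nL stock; the first replicate is given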
FGF22 binding = FGF22 (human) thermal shift binding. Q9HCT0. recombinant FGF22 thermal shift, SYPRO orange fluorescence; percent of sucrose octasulfate shift, DMSO zero. calls only at 9.99 µM. actives 1.5% (n = 340,000);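 active = melting point raised past a set limit in the mean and every replicate; inconclusive = no clear call; three in four hits are not shown here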
Target sequence (Q9HCT0 whole entry, looked up): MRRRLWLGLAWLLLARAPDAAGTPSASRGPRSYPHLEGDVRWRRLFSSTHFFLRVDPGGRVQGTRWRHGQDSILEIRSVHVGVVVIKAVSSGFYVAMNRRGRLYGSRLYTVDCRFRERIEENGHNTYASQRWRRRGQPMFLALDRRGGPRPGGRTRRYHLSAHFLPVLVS
T cruzi repl = blocks replication of Trypanosoma cruzi; T. cruzi beta-gal in NIH3T3, luminescence, 90 h; inhibition, % (test concentration not listed); actives 1.4% (n = 300,000);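 active = mean inhibition across valid replicates above about 55%, limit read from the data; inconclusive = mean below that limit but half or more replicates reach it; inactive = mean below it, under half of replicates reach it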;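 also: signal also drops with host cell toxicity which is not excluded here; 0% = plate median of DMSO wells and 100% = zero luminescence signal; higher percent means less beta-gal luminescence so fewer parasites; stock transfer was 50 nL into about 50 µL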
RanGTP-Impb inh = disruptors of Ran-importin-beta complex formation – biochemical, FRET, CFP-Ran, YFP-importin-beta, homogeneous, primary screen. cell-free CFP-Ran/YFP-importin-beta FRET ratio. inhibition, % (no concentration beside the values). actives 1.1% (n = 300,000);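 active = most replicates above 15%; inconclusive = exactly half above 15%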;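 also: 0% = DMSO wells and 100% = Ran loaded with GDP instead of GTP; wells of about 40 µL received 100 nL stock; the first replicate is given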
rRNA inh HTS = inhibitors of bacterial rRNA selective over humanized ribosomes | AID 720706 | actives 1.6% (n = 350,000) | GFP signal change (wild-type ribosome), % (test concentration not listed) | E. coli WT GFP vs humanized-ribosome RFP mutants, fluorescence, 24 h; stronger effect = lower value; DMSO median 0, no signal -100;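 active = significant combined selectivity score with lowered wild-type GFP, culture density cut under 30%, mutant RFP and density less affected; inactive = any of these conditions unmet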; also: one replicate is shown; some compounds called inactive have numbers as strong as hits
rRNA inh HTS OD600 = also measured in rRNA inh HTS; calls as there; OD600 change, %; measured here: OD600 growth;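 optical density of the mix in the first replicate; 0 = DMSO median and -100 = no signal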
rRNA inh HTS RFP = also measured in rRNA inh HTS; calls as there; RFP signal change, %; measured here: RFP humanized mutant strains;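 first replicate; 0 = DMSO median and -100 = no signal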
Numbers without * were called inactive; i = inactive; ? = inconclusive; . = not tested or not shown. The list is partial; count on the stated rates, not on these rows.

SMILES	AF4-AF9 inh	Calb FLC	ALR inh	Beta apoptosis	FGF22 binding	T cruzi repl	RanGTP-Impb inh	rRNA inh HTS	rRNA inh HTS OD600	rRNA inh HTS RFP
COC(C[C@H](O)C[C@H](O)COCc1ccccc1)OC	3.6	1	.	.	i	-14	?	9	-3	-2.1
O=C(c1cccnc1)N1CCC(c2nc3ccccc3[nH]2)CC1	0.6	-7	.	.	i	1	0.4	20	10	-3.3
Cn1c(=O)n(C)c2cc(S(=O)(=O)Nc3ccccc3O)ccc21	-5.0	3	51	-25	i	2	0.2	4	12	-2.2
COc1ccc(NC(=O)C/C(C)=N/NC(=O)CCc2ccccc2)c(OC)c1	0.8	7	1	-1	.	-5	3.8	3	2	0.9
COc1ccc2c(c1)N(C(=O)CSc1n[nH]c(C)n1)C(C)(C)C=C2C	.	-16	3	1	.	-3	-2.5	.	.	.
COc1ccc(/C=C(\C#N)C(=O)NCc2ccccc2)cc1O	-0.1	-7	.	-1	i	1	0.3	-8	-10	1.5
CCC(C)(NC(=O)c1cccc(N2C(=O)CSC2c2ccccc2)c1)C(=O)Nc1ccccc1C (stereo not given)	.	-8	39	-2	.	-3	-0.7	.	.	.
CC(Oc1ccc(Br)cc1)C(=O)O/N=C(\N)c1ccncc1 (stereo not given)	-1.2	-2	3	-4	i	17	-1.4	-3	-30	-4.2
COc1cc(C(=O)NCc2cccs2)ccc1OCc1c(C)noc1C	-1.7	.	0	7	i	.	.	1	0	-2.9
CCOc1cc(/C=N/NC(=O)Cn2nc([N+](=O)[O-])cc2C)ccc1OCc1ccc(F)cc1	.	-2	15	7	.	0	-1.8	.	.	.
Cc1ccc(-c2n[nH]c(=O)c3ccccc23)cc1S(=O)(=O)N(C)CCO	.	-4	-2	2	.	-12	-1.5	.	.	.
CC(=O)c1cccc(OCC(=O)N(Cc2ccco2)c2c(N)n(Cc3ccccc3)c(=O)[nH]c2=O)c1	0.2	.	-4	-3	i	.	.	.	.	.

Quoted from the listing.
T cruzi repl, CCOc1cc(/C=N/NC(=O)Cn2nc([N+](=O)[O-])cc2C)ccc1OCc1ccc(F)cc1 = 0
RanGTP-Impb inh, CCC(C)(NC(=O)c1cccc(N2C(=O)CSC2c2ccccc2)c1)C(=O)Nc1ccccc1C (stereo not given) = -0.7
ALR inh, COc1ccc2c(c1)N(C(=O)CSc1n[nH]c(C)n1)C(C)(C)C=C2C = 3

(next part)
SMILES	AF4-AF9 inh	Calb FLC	ALR inh	Beta apoptosis	FGF22 binding	T cruzi repl	RanGTP-Impb inh	rRNA inh HTS	rRNA inh HTS OD600	rRNA inh HTS RFP
COc1ccc(N2CCN(C(=S)NC(C)c3ccccc3)CC2)cc1 (stereo not given)	3.4	-53	59	-7	i	-9	1.1	-4	-10	-3.7
COc1cc(OC)cc(C(=O)N2CCC(N3CCN(c4ccccc4OC)CC3)CC2)c1	-5.4	4	7	.	i	10	8.0	7	0	-7.8
CC(C)(C)NC(=O)COC(=O)/C=C/c1ccc(F)cc1	3.6	-51	.	-13	i	-3	0.5	1	9	-0.4
COc1cccc(NC(=O)CSc2nc3n[nH]c(C)c3c(=N)n2-c2cccc(OC)c2)c1	.	3	-16	7	.	30	2.6	.	.	.
CC(C)(C)c1cc(Br)c(O)c(N=Nc2ccc(S(=O)(=O)N3CCOCC3)cc2)c1	?	0	-3	24	i	20	-5.0	26	8	-0.8
CCn1c(-c2ccncc2)n[nH]c1=S	-5.0	-1	65	-8	i	-9	-3.1	11	6	5.1
CCn1c(SCC(=O)Nc2cc(F)ccc2C)nnc1-c1ccccc1O	.	-5	.	9	.	7	-1.3	.	.	.
O=C(COC(=O)COc1ccc(Cl)cc1)NCCNC(=O)COC(=O)COc1ccc(Cl)cc1	-1.8	2	.	8	i	-1	2.2	25	12	-1.4
CC(=O)/C=C/c1ccccc1O	-0.4	19	4	2	i	-36	-0.3	22	14	5.2
NC(=O)c1ccc2c(=O)c(O)c(-c3cc(Cl)c(N)c(Cl)c3)[nH]c2c1	-5.3	-9	22	-4	i	-15	-6.7	-4	2	-6.2
CCc1cccc(NC(=O)CSc2nc3c(c(=O)[nH]2)CCCC3)c1	.	-1	-6	-1	.	2	2.3	.	.	.
O=C(c1cn(-c2ccccc2)nc1-c1ccccc1)N1CCOCC1	.	2	3	-5	.	0	-2.6	.	.	.
Cc1noc(C)c1S(=O)(=O)N1CCCC(C(=O)NCCC2=CCCCC2)C1 (stereo not given)	.	-2	-2	6	.	9	0.8	.	.	.
O=C(C1CC(=O)N(c2ccc(Br)cc2)C1)N1CCCC1 (stereo not given)	-5.5	-5	-5	-4	i	10	?	4	7	0.8
Cc1ccc(CCC(=O)Nc2ccc([N+](=O)[O-])cc2)o1	7.0	-28	9	.	i	-7	?	-1	2	-1.0
CC1CCc2c(C(=O)NCc3ccco3)csc2C1 (stereo not given)	5.6	9	4	-5	i	14	?	-3	-6	-2.9
C[C@H](CO)NC(=O)[C@@H]1C[C@H]1[C@@H](NP(=O)(c1ccccc1)c1ccccc1)c1ccccc1	-2.2	4	-1	.	i	2	-2.3	3	5	-7.4
CC(C)OCCCNC(=O)c1ccc(CN2CCc3ccccc3C2)cc1	1.9	-7	2	-2	i	8	-2.7	11	10	0.8
CCNC(=O)N(CC)C[C@H]1N[C@@](C)(C(=O)OC)[C@H]2C(=O)N(C)C(=O)[C@@H]12	-8.8	.	2	-2	i	.	.	-4	6	11
O=C(COC(=O)CCC1CCCC1)Nc1ccccc1OC(F)F	-5.3	25	-10	-6	i	-11	-4.5	0	4	-4.3
CN(C)S(=O)(=O)c1ccc2c(c1)C(CC(=O)O)NC2=O (stereo not given)	.	2	-5	-4	.	-8	6.8	.	.	.
NC(=O)c1ccc(N2CCN(c3ncc(C(F)(F)F)cc3Cl)CC2)cc1	2.9	24	-2	1	i	-23	5.6	6	0	-9.3
COc1ccc(-c2nnc(Sc3nc4ccccc4o3)c3ccccc23)cc1	-2.2	?	4	-3	i	17	-3.2	-13	-1	31
COC(=O)c1cc(C(=O)N2CCN(c3cccc(Cl)c3)CC2)cc([N+](=O)[O-])c1	11	11	-11	8	i	10	-2.9	-9	-9	-2.2
CC(=O)/C(C[N+]1(C)CCCCC1)=N\O	.	1	0	1	.	0	-4.6	.	.	.
COC(=O)Cc1[nH]c(=S)[nH]c1C(=O)OC	-1.0	5	59	-3	i	-4	-3.8	7	17	-6.6
O=C(Nc1ccccc1)N(C1=NCCCCS1)c1ccccc1	.	-3	-5	1	.	-5	-4.0	.	.	.
N#C/C(=C/c1ccc(Br)s1)C(=O)NCCc1c[nH]c2ccccc12	-4.7	6	-3	-2	i	13	0.5	.	.	.
COCCN1Cc2cccc(C(=O)Nc3c(C)cc(C)cc3C)c2C1=O	.	14	-18	-7	.	15	-2.6	.	.	.
CN(C(=O)c1cccc(NC(=O)Cc2cccc([N+](=O)[O-])c2)c1)C1CCC1	1.1	.	0	0	i	.	.	2	-1	-4.1
COc1ccc(NC(=O)c2ccc3c(=O)n(-c4ccc(OC)cc4OC)c(=S)[nH]c3c2)cc1	-5.8	13	16	6	i	19	2.8	-2	5	-0.7
C=CCN1C=C2C(=O)C(C)(OC(=O)C3CCCC3)C(=O)C=C2C=C1c1ccsc1 (stereo not given)	-9.4	8	.	-6	i	15	?	3	8	12
Nc1nnc(SCC(=O)OCC(=O)Nc2ccccc2)s1	1.9	-3	49	4	i	-10	-8.9	9	7	-1.4
O=C(COC(=O)/C=C/c1ccc(OC(F)F)cc1)Nc1ccc(N2CCOCC2)cc1	0.3	-4	1	2	.	-6	.	4	10	-0.5
COc1ccc2sc(C)nc2c1NC(C)=O	.	4	-9	-2	.	.	2.4	.	.	.
Cn1ccsc1=NC(=O)c1cc(S(=O)(=O)N2CCOCC2)ccc1F	2.6	0	.	.	i	4	-0.8	1	1	-1.7
Fc1cccc(F)c1-n1c(CN2CCCCC2)csc1=S	1.3	0	-1	1	i	-12	7.5	-18	-39	-0.7
CCN1CCCC1CNC(=O)C(=O)NC(C)c1ccccc1 (stereo not given)	-0.6	?	-23	-4	i	1	2.8	-18	-28	-18
C=C[C@H]1[C@H](O[C@@H]2O[C@H](CO)[C@@H](O)[C@H](O)[C@H]2O)OC=C2C(=O)OCC[C@]21O	-1.6	.	-1	-4	i	.	.	8	10	-3.6
CC(C)CN1CCN(Cc2cn(C)c3ccccc23)CC1CCO (stereo not given)	2.9	-1	-12	-3	i	-18	2.5	1	3	-2.6
CCC(CC)c1nnc(NC(=O)c2cccc(S(=O)(=O)N3CCc4ccccc43)c2)s1	-0.2	2	-5	3	i	2	-3.8	-2	2	14
Cc1ccc(C)c(Oc2ncnc(N)c2[N+](=O)[O-])c1	1.1	-7	-2	-11	i	-14	1.6	13	13	-3.5
CC(C)COC(=O)n1c(=O)oc2ccc(S(=O)(=O)N3CCCCC3)cc21	1.0	6	11	5	i	-1	-3.9	6	3	7.5
COc1ccc(Cn2c(=O)c3[nH]cnc3n(-c3ccccc3C)c2=O)cc1	-1.1	12	.	11	i	-26	5.2	-16	-5	1.4
Cc1ccc(/C=C2/C(=N)N3N=C(CC(=O)N4CCCC4)SC3=NC2=O)o1	-7.4	29	11	-2	i	-5	4.9	2	-3	2.9
CN(C(=O)C(Cl)Cl)c1ccc(OC(=O)c2ccco2)cc1	-8.6	.	.	3	i	1	-1.0	4	-6	-3.2
O=C(C(=O)N1CCN(c2ccc(F)cc2)CC1)c1c[nH]c2ccccc12	-5.9	23	13	-9	i	20	1.7	10	6	3.6
O=C(c1cccs1)N(Cc1nc2sc3c(c2c(=O)[nH]1)CCCC3)C1CCCC1	.	4	-6	1	.	16	1.9	.	.	.
CN(C)C(CNC(=O)c1ccc(S(=O)(=O)Nc2ccccc2)cc1)c1ccco1 (stereo not given)	-2.1	6	-2	.	i	3	-2.0	6	7	1.5
CCCCc1cc(=O)oc2cc(OCC(=O)N3CCOCC3)ccc12	-2.2	-14	.	-6	i	3	0.4	-4	-2	-0.4
CCN1C(=O)/C(=C/c2nc3ccccc3c(=O)n2-c2ccccc2)c2ccccc21	.	6	.	23	.	45	3.4	.	.	.
COc1ccc(CC(=O)Nc2nc(-c3ccccc3)c(C(C)=O)s2)cc1OC	6.2	1	-18	5	i	15	2.7	-17	-37	14
O=[N+]([O-])c1cc(S(=O)(=O)N2CCOCC2)ccc1N1CCCC1	-0.6	-1	1	3	i	-8	-1.0	-1	-8	-4.1
COc1ccccc1NC(=O)c1cc(S(=O)(=O)NC2CCCC2)ccc1F	0.2	-25	4	-3	i	0	4.5	-30	-23	-6.8
CCN1CCN(c2nnc(-c3ccc(C)cc3)c3ccccc23)CC1	1.1	-6	-1	-7	i	0	0.8	-8	-6	-6.0
O=c1cc(CCl)[nH]c2nc3ccccc3n12	-6.1	18	.	3	i	13	3.4	-4	-8	-1.1

High-throughput results: PubChem BioAssay, Broad Institute
